MgrA DNA FP – modulators of Staphylococcus aureus MgrA DNA binding. fluorescence polarization. inhibition, %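 (about 10 µg/mL by stock and volumes)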. actives 0.13% (n = 84,000). AID 602314;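 active = above 50% in either of two replicates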;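 also: 0% = protein plus DNA without compound and 100% = DNA alone without protein; higher means less MgrA bound to DNA so lower polarization; one replicate is shown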
Sa helicase inh – blocks Staphylococcus aureus DNA helicase; purified S. aureus helicase, fluorescence unwinding assay; about half of the hits fall short of the stated cut; inhibition, %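 (tested at about 80 µM)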; actives 0.05% (n = 120,000); AID 485395;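 active = both duplicates at 50% or more, or one of them with a favoured structure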;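 also: 0% = mean of negative control wells and 100% = mean of positive control wells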
The depositor's hits bear a star; . = no result given. Some of the compounds tested; rates above refer to the full screens.

| structure | MgrA DNA FP | Sa helicase inh |
| --- | --- | --- |
| CCOC(=O)c1c(C)nsc1NC(=O)Oc1ccccc1 | 4.2 | . |
| COC(=O)c1sccc1NNC(=O)/C(C)=C/C(=O)O | . | 10.0 |
| CCN1CCN(C(=O)C2CCN(C(=O)c3cc4sccc4n3Cc3ccc(F)cc3)CC2)CC1 | . | -21.0 |
| COc1cccc(NC2CC(=O)N(c3c(C)cccc3C)C2=O)c1 (stereo not drawn) | . | 13.0 |
| Cc1csc(N(C(=O)CCc2nc3ccccc3o2)c2ccccc2)n1 | . | -2.0 |
| Cn1ccnc1SCC(=O)NC1Cc2ccccc2C1 | -3.2 | . |
| O=C1N(CN2CCN(CCO)CC2)c2ccccc2C12OCCO2 | -2.3 | . |
| O=C(O)/C=C/C(=O)N1CCN(c2cc(C(F)(F)F)ccn2)CC1 | -4.0 | . |
| C(=NCc1cccs1)c1cccs1 | 0.9 | . |
| CC(C)NC(=O)CN1CCN(c2ccc(F)cc2)CC1 | -31.7 | 20.0 |
| Cc1cc(C(=O)Sc2ccccc2)nn1C(C)(C)C | -1.2 | . |
| c1nc(N2CCN(Cc3ccc4c(c3)OCO4)CC2)c2ccsc2n1 | . | -11.0 |
| CCC(Sc1nc(Nc2ccc(F)cc2)c2ccccc2n1)C(=O)Nc1ccc2c(c1)OCO2 (stereo not drawn) | 0.3 | -13.0 |
| O=C(Oc1c(CN2CCOCC2)cc(Cl)c2cccnc12)c1ccc(Cl)cc1 | . | 2.0 |
| CC(NC(=O)CN1CCN(Cc2ccc(Cl)cc2)C1=O)c1ccc2c(c1)OCCO2 (stereo not drawn) | . | 1.0 |
| CCOC(=O)NN=C1CC(C)(C)NC(C)(C)C1 | . | -4.0 |
| Cc1ccc(OCCNC(=O)c2sc(C)nc2C)cc1 | . | -21.0 |
| Cc1ccc(CN2C(=O)C(O)(c3c(C)[nH]c4ccccc34)c3cc(Br)ccc32)cc1 (stereo not drawn) | -0.5 | 1.0 |
| O=C(O)C1CCC(CNS(=O)(=O)c2ccc(Br)cc2)CC1 (stereo not drawn) | -1.1 | 18.0 |
| COc1ccccc1NC(=O)N1CCCSc2ccccc21 | . | -2.0 |
| COS(=O)(=O)c1ccc2c(c1C)OC(C)(C)CC2=O | 1.4 | . |
| O=C(/C=N/O)Nc1cccnc1 | 4.9 | 5.0 |
| c1cnc2nc(CN3CCCC3)cn2c1 | . | -11.0 |
| Cc1ccc(CNC(=O)c2cc(=O)[nH]c3ccc(Br)cc23)cc1 | 0.3 | 1.0 |
| O=C(Cn1c(=O)oc2ccccc21)Nc1ccc2nc3n(c(=O)c2c1)CCCCC3 | . | -5.0 |
| CCOc1cc(/C=C2/SC(=Nc3ccccc3)NC2=O)cc(Br)c1O | -0.7 | . |
| O=C(Cn1nnc2ccccc21)Nc1ccccc1Cl | -0.2 | -1.0 |
| O=C(Cn1nc(-c2ccc(Cl)cc2)ccc1=O)NCc1ccco1 | -1.1 | -2.0 |
| Cc1cc(Cl)ccc1OC(C)C(=O)N1CCN(c2ccccc2F)CC1 (stereo not drawn) | 1.4 | 2.0 |
| O=C(NC(=O)C1CCCCC1)Nc1ccc(Cl)cc1 | . | 11.0 |
| COc1ccc(C(=O)NCCS(=O)(=O)N2CCc3ccccc3C2)cc1OC | . | -2.0 |
| COc1ccc(-n2nnnc2-c2ccc3ccccc3n2)cc1 | . | -13.0 |
| N#CC1=C(n2ncnc2-c2ccc3c(c2)OCO3)SC2CCCCCC12 (stereo not drawn) | -2.2 | -1.0 |
| Cc1ccc(N2C(=O)c3ccccc3C2C(=O)c2ccc(O)cc2O)cc1 (stereo not drawn) | . | -7.0 |
| CCc1ccc2oc(-c3ccc(NC(=O)c4cccc5ccccc45)cc3)nc2c1 | 0.7 | . |
| c1ccc(CNc2cc(-c3ccccc3)nc3nncn23)cc1 | 1.8 | -10.0 |
| NC(=S)N1CCOCC1 | . | 8.0 |
| CC(C)NC(=O)c1cnn(C)c1-n1cccc1 | 0.7 | . |
| O=C(CS(=O)(=O)c1cn(Cc2ccccc2Cl)c2ccccc12)N1CCCCC1 | . | 14.0 |
| O=C(/C=C/c1cn(-c2ccccc2)nc1-c1cccs1)NCc1ccccc1 | 0.0 | 0.0 |

Some of the entries above in another layout:
Below each compound: MgrA DNA FP | Sa helicase inh
> c1ccc(CNc2cc(-c3ccccc3)nc3nncn23)cc1
→ 1.8 | -10.0
> NC(=S)N1CCOCC1
→ . | 8.0

Next part:
| structure | MgrA DNA FP | Sa helicase inh |
| --- | --- | --- |
| Cc1ccc2ncnc(Oc3ncccc3[N+](=O)[O-])c2c1 | -0.8 | . |
| Cc1oc2ccc(NS(=O)(=O)c3cccc4cccnc34)cc2c1C(=O)OC(C)C | . | -1.0 |
| C(=N\n1cnnc1)/c1ccc(OCc2ccccc2)cc1 | -2.0 | 16.0 |
| CCCCNC(=O)CN1CCN(Cc2cccc(OCC)c2OC)CC1 | . | -10.0 |
| O=C(Nc1ccc(Cl)cc1)c1cc2ncc(Br)cn2n1 | 7.1 | 8.0 |
| O=C(O)CCC1=NNC(=O)CC1 | -6.7 | -1.0 |
| O=C(Cn1cc(C(F)(F)F)ccc1=O)NCC1COc2ccccc2O1 (stereo not drawn) | . | 0.0 |
| CCn1ccc(=O)[nH]c1=O | . | 19.0 |
| O=C(CSc1nnc(NC2CC2)s1)NC(=O)c1ccccc1 | . | 12.0 |
| Nc1ccc(Cl)cc1C(=O)NCc1cccs1 | -3.0 | . |
| O=C(O)C1C2C=CC(C2)C1C(=O)NCc1ccncc1 (stereo not drawn) | 1.1 | 5.0 |
| NC(=O)C1CCN(C(=O)C2(c3cccs3)CCOCC2)CC1 | . | -15.0 |
| CCOC(=O)c1cc(-c2ccc(S(=O)(=O)N(CC)c3cccc(C)c3)s2)on1 | . | 4.0 |
| Oc1ccc(C=Nc2ccc(N=Cc3ccc(O)cc3)c(Cl)c2)cc1 | -2.0 | -16.0 |
| Cc1cc(C(=O)CSc2ncnc3c2cnn3-c2ccccc2)c(C)n1C1CCS(=O)(=O)C1 (stereo not drawn) | . | -9.0 |
| Cc1ccc(-c2n[nH]c(CNC(=O)NCc3ccccc3)n2)cc1 | 0.9 | -6.0 |
| COC(=O)Nc1c(C)nc2n(C)c3ccccc3n12 | 2.5 | 5.0 |
| CCC(C(=O)Nc1cccc(OC)c1)n1nc(-c2ccc(OC)cc2)ccc1=O (stereo not drawn) | . | 17.0 |
| CN(c1cc(C(F)(F)F)ccn1)N1C(=O)c2ccccc2C1=O | -1.1 | . |
| CCCSc1n[nH]c(=S)s1 | 5.7 | . |
| COc1ccc(C(=O)CNc2cc(C)ccc2C)c(F)c1 | . | -10.0 |
| Cc1cc(C(=O)NCc2ccc(Cl)cc2)on1 | . | 2.0 |
| COc1ccc(C)cc1CN(C)c1ncnc2ccccc12 | . | -4.0 |
| CCOC(=O)/C=C1\NC2(CCCC2)Cc2cc(OC)c(OC)cc21 | 2.0 | -4.0 |
| CCCc1cc(=O)c2ccc(O)cc2o1 | -0.5 | . |
| CCc1cc(C(=O)COc2ccc(Cl)cc2)c(O)cc1O | . | -4.0 |
| c1ccc(-n2ncc3c(SCC4CCCCO4)ncnc32)cc1 (stereo not drawn) | . | -2.0 |
| CCn1cc(C(=O)N2CC(C)CC(C)C2)c(=O)c2cc(S(=O)(=O)N3CC(C)CC(C)C3)ccc21 (stereo not drawn) | 1.6 | -1.0 |
| CCSC1=NCCN1S(=O)(=O)c1ccccc1 | . | 10.0 |
| Cc1nc(CC(=O)N=Nc2c(O)[nH]c3ccc(F)cc23)cs1 | . | 13.0 |
| NC(=O)/C(=C/c1ccc(Cl)cc1)NC(=O)c1ccccc1 | -0.4 | 5.0 |
| CNC(=S)Nc1cc2oc3ccccc3c2cc1OC | . | -9.0 |
| CC1(C)CC(Nc2ccc(Cl)cc2)CCO1 (stereo not drawn) | . | 2.0 |
| Cc1ccccc1NC(=O)COC(=O)c1ccccc1 | . | -8.0 |
| CC1CCCC(C)N1/N=C/c1ccc(O)cc1 (stereo not drawn) | . | 7.0 |
| CCOC(=O)c1c(-c2cccs2)csc1/N=C/c1c(O)n(C)c2ccccc12 | 12.6 | -27.0 |
| CC(C(=O)O)n1nc(-c2ccccc2)c2cc(Cl)ccc21 (stereo not drawn) | . | -3.0 |
| CCc1ccc(-c2nc(CS(=O)CC(=O)NCCc3ccccc3)c(C)o2)cc1 (stereo not drawn) | . | -2.0 |
| COC(=O)c1nnn(CC(=O)Nc2ccc(C(C)C)cc2)c1C(=O)OC | . | 12.0 |
| Cc1cccc(CC(=O)Nc2ccc3c(c2)OCCO3)c1 | -0.2 | 20.0 |

3 entries from above, set out differently:
The line under a structure holds: MgrA DNA FP	Sa helicase inh
CNC(=S)Nc1cc2oc3ccccc3c2cc1OC
  .	-9.0
CC1(C)CC(Nc2ccc(Cl)cc2)CCO1 (stereo not drawn)
  .	2.0
Cc1ccccc1NC(=O)COC(=O)c1ccccc1
  .	-8.0

The list goes on.
| structure | MgrA DNA FP | Sa helicase inh |
| --- | --- | --- |
| CCc1ccc(C(=O)Oc2ccc(C#N)cc2)cc1 | 1.6 | 6.0 |
| CSc1nsc(SC)c1C(=O)N1CCN(S(=O)(=O)c2ccc(C)cc2)C1C(C)C (stereo not drawn) | . | -5.0 |
| CN(C)c1ccnc2sc3c(N(CCO)CCO)ncnc3c12 | . | -2.0 |
| CC(C(=O)NCCN1CCOCC1)(c1ccccc1)c1ccccc1 | -3.4 | -4.0 |
| CCn1c(C(=O)O)c(CC(=O)Nc2ccccc2OC)c2ccccc21 | . | 9.0 |
| OC1(c2ccc(F)cc2)CSC(=Nc2cccnc2)N1Cc1ccco1 (stereo not drawn) | . | -4.0 |
| C=CCOc1ccc(/C(O)=C2\C(=O)C(=O)N(CCCN3CCOCC3)C2c2ccc(OC)c(OC)c2)c(C)c1 (stereo not drawn) | . | 13.0 |
| COc1ccc(Br)cc1/C=C1\N=C(c2cc(C)ccc2[N+](=O)[O-])OC1=O | 0.9 | . |
| O=C(Nc1ccccc1-c1nc2ccccc2[nH]1)c1cc([N+](=O)[O-])ccc1Cl | -1.0 | . |
| CC(C)=CC(=O)Nc1ccc(Cl)cc1 | -0.4 | 5.0 |
| Cc1csc(SCC(=O)NC(=O)Cc2ccccc2)n1 | . | 18.0 |
| Cc1cc(C(=O)COC(=O)c2ccc3c(=O)n4c(nc3c2)CCCCC4)c(C)n1C1CC1 | . | -1.0 |
| O=C(CCc1cn(Cc2ccccc2Cl)c2ccccc12)N1CCc2ccccc21 | -2.3 | -5.0 |
| O=c1c2ccccc2nc(-c2ccccc2)n1-c1cc(C(F)(F)F)cc(C(F)(F)F)c1 | -2.3 | . |
| CCOC(=O)C1=C(C)N(C(=O)Oc2ccccc2)C(SC)=NC1c1ccccc1 (stereo not drawn) | 4.5 | . |
| O=C(NCCn1cnc2cccnc21)N(c1ccccc1)c1ccccc1 | 3.7 | -1.0 |
| Cn1cccc1Cc1nnc(SCC(=O)Nc2ccccc2C(F)(F)F)n1-c1ccc(F)cc1 | 3.0 | 5.0 |
| Cc1ccc(Nc2ccnc3cc(Cl)ccc23)cc1F | -3.0 | . |
| COc1cccc(C2C(C(=O)c3ccccc3)=C(C)Nc3nc4ccccc4n32)c1 (stereo not drawn) | -1.7 | 9.0 |
| Cc1ccc(C(c2c(O)[nH]c(=S)[nH]c2=O)N2CCCCC2)cc1 (stereo not drawn) | 19.6 | 7.0 |
| COc1ccc(OC)c(NC(=O)c2cc3cccc4c3n2CC(C)S4)c1 (stereo not drawn) | . | 18.0 |
| CCCCn1c(-c2cccs2)nc2ccccc21 | . | -15.0 |
| O=C(CN1CCN(c2ccc(C(F)(F)F)cn2)CC1)NC1CCCc2ccccc21 (stereo not drawn) | . | -7.0 |
| O=c1[nH]c2ccccc2n1CN1CCOCC1 | . | -14.0 |
| CCN(Cc1nc(-c2cccc(C)c2)no1)C(=O)c1ccc(Br)o1 | 0.4 | -1.0 |
| N#CCCN(Cc1ccccc1)S(=O)(=O)c1ccc(-c2ccccn2)s1 | 2.6 | . |
| COc1ccc(S(=O)(=O)N(CCC(=O)O)Cc2ccco2)cc1OC | -0.5 | . |
| CC(=O)NC1=NN(C(C)=O)C2(CCCC2)S1 | -0.2 | 6.0 |
| O=C1NC(Cc2ccccc2)C(=O)N1c1ccccc1 (stereo not drawn) | . | 4.0 |
| CC1Cc2ccccc2N1C(=O)Nc1cccc(F)c1 (stereo not drawn) | -0.5 | 12.0 |
| CCCC(=O)Nc1cccc(-c2nc3ccccc3c(=O)o2)c1 | 3.5 | 15.0 |
| Cc1ccc(Cn2ccsc2=NC(=O)CSc2nnc(-c3ccc4c(c3)OCO4)o2)cc1 | . | -4.0 |
| Cc1ccccc1NC(=O)c1cc2cccc3c2n1CC(C)S3 (stereo not drawn) | . | 18.0 |
| Cc1ccc(CN2CCN(CC(=O)NCc3ccc4c(c3)OCO4)C2=O)cc1 | 0.1 | 1.0 |
| c1cc(CN2CCCCC2)n(-c2nnc(N3CCCCCC3)s2)c1 | . | 3.0 |
| Cc1cccc(N2CCN(CC(=O)NCC(F)(F)F)CC2C)c1 (stereo not drawn) | . | -10.0 |
| NC(=O)c1ccccc1NC(=O)Cc1c(F)cccc1Cl | -1.6 | 20.0 |
| c1ccc(-n2nnnc2Oc2ccc(-n3ccnc3)cc2)cc1 | . | -10.0 |
| Cc1oc(-c2ccccc2)nc1C(=O)OCc1cc(=O)oc2cc3c(cc12)CCC3 | . | -7.0 |
| O=C1c2ccccc2C(=O)N1c1ccc(S(=O)(=O)Nc2ccc(F)cc2)cc1 | . | 5.0 |
| O=C(OCc1cc(F)cc2c1OC(c1ccccc1)OC2)c1ccco1 (stereo not drawn) | . | 7.0 |
| O=C(CCCCl)NCc1cccnc1 | -2.8 | -22.0 |
| CC12CCC3c4ccc(Oc5ccc([N+](=O)[O-])cc5)cc4CCC3C1CCC2O (stereo not drawn) | -2.7 | . |
| CCOc1ccc(-c2nnc(NC(=O)Nc3ccccc3)o2)cc1 | . | 1.0 |
| S=C(NCc1ccccn1)Nc1ccccc1 | 0.4 | . |
